Screening results: PubChem, ICCB-Longwood Screening Facility, Harvard Medical School
Vaccinia pol inh – vaccinia E9 polymerase processive synthesis inhibitors, primary screen, biochemical, absorbance. Vaccinia virus DNA polymerase (E9) processive complex. in vitro processive DNA synthesis, absorbance read-out; hits give low values; some inactives read as strong as hits. normalized absorbance, % (concentration not given with the values). 46,000 tested, 0.94% active. AID 493162, 2011;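 active = replicate mean up to 90% and picked by the depositor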;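 note: 100% = median of the test wells of a plate; 100 nL library stock went into each well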
* = called active by the depositor. An excerpt, so the mix of outcomes need not match the whole.

molecule	Vaccinia pol inh
COC(=O)C1=C(C)NC2=C(C(=O)CC(c3ccccc3)C2)C1c1ccccc1OC(C)C (stereo unspecified)	100.1
COc1cccc(N2C(=O)/C(=C/c3ccsc3)C(=O)NC2=S)c1	98.0
COc1ccccc1C(=O)n1nc(C)cc1C	100.2
Cc1ccc(NC(=O)CSc2nnc(NC(=O)c3cccs3)s2)cc1	101.2
Oc1ccc(C(CCl)n2cncn2)cc1 (stereo unspecified)	90.6
CC(C)c1cc(C(C)C)c(S(=O)(=O)N2CCCC2)c(C(C)C)c1	100.5
CN(C)C(=O)Oc1ccc2cc(Br)ccc2c1Br	101.1
Cc1cc(C)nc(SC(C(=O)c2ccccc2)c2ccccc2)n1 (stereo unspecified)	101.1
O=C(Oc1ccccc1OC(=O)C1C2CCCCC21)C1C2CCCCC21 (stereo unspecified)	100.2
Cc1ccc(C=Nc2cc(Cl)ccc2O)o1	92.9
N#CC1=C(N)OC(N)=C(C#N)C1c1cc(Br)cs1	98.8
O=c1ncn(-c2ncc(C(F)(F)F)cc2Cl)[nH]1	101.3
NC(=O)C1CCN(C(=O)c2ccco2)CC1	95.7
COc1ccc2oc(=O)c(C(=O)NC(C)(C)C)cc2c1	94.5
O=C(Nc1nc2ccc(Cl)cc2s1)c1ccc(S(=O)(=O)N2CCCCC2)cc1	102.8
C=CCN1C(=O)/C(=C\c2ccccc2Cl)N=C1c1ccccc1	80.8
COc1cccc(/C=C2/SC(=Nc3ccccc3)N(CCc3ccccc3)C2=O)c1O	100.1
CCn1nc(-c2ccccc2)cc1-n1cnc2ccccc21	99.5
Cc1c(C(=O)N2CC(C)OC(C)C2)sc2nc(-c3ccccc3)cn12 (stereo unspecified)	101.3
Cc1cccc(C=Nc2c(C)n(C)n(-c3ccccc3)c2=O)c1	101.0
FC(F)(F)Oc1ccc(N=Cc2ccc[nH]2)cc1	99.9
COc1nc(-c2ccccc2Cl)c2cc(Br)ccc2n1	99.6
Cc1ccc(S(=O)(=O)N(c2ccccc2)C2CC(C)Nc3ccccc32)cc1 (stereo unspecified)	100.2
O=C(NCc1ccccc1)NC1(C(F)(F)F)Oc2ccccc2O1	92.9
Cc1ccc(S(=O)(=O)Nc2cccc3c(O)cccc23)cc1	99.0
Cc1ccc(N2CCN(C(=O)CN(c3ccc(C)cc3)S(=O)(=O)c3c(C)n[nH]c3C)CC2C)cc1 (stereo unspecified)	96.7
O=C1NC(=O)N(c2ccccc2)C(=O)/C1=C\c1ccc(C(=O)O)cc1	99.4
NN/C(=N/S(=O)(=O)c1ccccc1)N1CCCC1	95.9
O=C(NCc1csc(-c2cccs2)n1)c1cc(F)cc2c1OCOC2	98.2
Cc1ccc(C(=O)OC[C@H]2O[C@H](c3nnc4ncccn34)C[C@@H]2OC(=O)c2ccc(C)cc2)cc1	87.5
CN(C)S(=O)(=O)c1cccc(C(=O)NC(C)(C)C)c1	101.9
C/C=C(/C(=C/C)c1ccc(O)cc1)c1ccc(O)cc1	94.6
Cc1nnc(C)n1/N=C/C=C\c1ccco1	93.1
Cc1sc(NC(=O)C(c2ccccc2)c2ccccc2)c(C(N)=O)c1C	98.8
O=C(NCc1ccccn1)c1nnc(-c2cccc(Cl)c2)o1	104.0
COc1ccccc1NC(=O)CC(=O)Nc1ccccc1OC	100.4
Oc1ccc(C2CC(c3ccccc3O)=Nc3ccccc3S2)cc1 (stereo unspecified)	90.9
CCOc1ccc2c(c1)SC1=NS(=O)(=O)CCN12	95.3
CC(C)CCNC(=O)C1CCN(C(=O)N(C)C)CC1	82.6
O=C(Oc1ccc2c(c1)OCO2)c1c(Cl)cccc1Cl	98.3
CCSc1ncnc2c1oc1ccccc12	100.1
CCc1ccc(N2NC(=O)C(=C(C)C)C2=O)cc1	97.1
O=C(OCCN1CCCCC1)c1cccc(F)c1	94.2
CC(C)NCC(O)COc1ccc2ccccc2c1 (stereo unspecified)	95.1
CC1(C)CC(=O)C2=C(C1)NC(Nc1nc3ccccc3o1)=NC2c1ccccc1 (stereo unspecified)	94.8
O=c1ccc2cc(N=Cc3cc(Cl)cc(Cl)c3O)ccc2o1	108.1
Oc1ccc(C2(c3ccc(O)cc3)CCCCC2)cc1	98.2
CCc1ccc(C2CC(c3ccccc3)=NN2C(=O)CCCC(=O)O)cc1 (stereo unspecified)	100.0
CCCOc1cccc2c1CCN(CC)C2=O	99.8
CC1CCCCC1NC(=O)c1cnn2c(C(F)(F)F)cc(-c3ccccc3)nc12 (stereo unspecified)	92.0
COc1ccc(C(=O)NC(=S)Nc2ccc3[nH]c(=O)[nH]c3c2)cc1OC	100.1
O=C(CSc1ncnc2ccccc12)NCC1CCCO1 (stereo unspecified)	99.9
O=C(CC(Sc1ccc(Cl)cc1)c1ccc(Cl)cc1)C1CC1 (stereo unspecified)	100.5
Cc1cc(C)c2c(CC(=O)Nc3c(C(=O)c4ccccc4)oc4ccccc34)coc2c1	101.9
CCOC(=O)c1nn(-c2cccc(C(F)(F)F)c2)cc1O	97.5
Fc1ccccc1C=Nc1cccc2ccccc12	99.8
O=C(COC(=O)c1ccco1)NC1CCCCC1	102.9
O=C(c1ccco1)N1CCN(C(=O)c2cc3c(s2)CCCC3)CC1	106.2
Cc1cc(=O)oc2cc(OCC(=O)N3CCCC3)ccc12	103.8
O=S(=O)(c1ccccc1)c1ncc(C(F)(F)F)cc1Cl	109.4

Pulled one by one from the list above:
molecule	Vaccinia pol inh
O=C(CC(Sc1ccc(Cl)cc1)c1ccc(Cl)cc1)C1CC1 (stereo unspecified)	100.5
O=C1NC(=O)N(c2ccccc2)C(=O)/C1=C\c1ccc(C(=O)O)cc1	99.4

(listing goes on)
molecule | Vaccinia pol inh
Cc1ccc(-c2cn3c4ccccc4nc3n2CCCN2CCCCC2)cc1 | 91.5
CNC(=O)Cn1cc2c(n1)-c1c(oc(C(=O)N3CCCC3)c1C)CC2 | 102.8
CCN(Cc1ccccc1)c1ccc(C=Nc2ccc(O)cc2)cc1 | 98.9
O=C(NC(=O)C(F)(F)F)N1CCCc2ccccc21 | 108.5
O=C(COc1ccc(Cl)cc1Cl)Nc1ccc(-c2nnc3n2CCCCC3)cc1 | 88.6
CC1(C)CC(NC(=O)C(F)(F)F)C(NC(=O)C(F)(F)F)C(C)(C)N1 (stereo unspecified) | 100.6
CC(C)(C)c1ccc(CSCc2nc3ccccc3[nH]2)cc1 | 80.1
O=C(NC(=S)Nc1nc(-c2ccc(Cl)cc2)cs1)C1CC1 | 98.0
O=C(O)C1=CCNCC1 | 100.3
CN(C)CCNC(=O)c1cc(-c2cccs2)nc2ccccc12 | 75.5
CC(C)(C)c1cnnn1-c1ccc(NC(=O)c2ccc(Br)o2)cc1 | 99.9
CCOC(=O)c1ccc(-c2coc3cc(OC(C)=O)c(CC)cc3c2=O)o1 | 99.8
Cc1ccccc1Cn1c(=O)n(CC2CCC(C(=O)NCc3ccccc3)CC2)c(=O)c2ccccc21 (stereo unspecified) | 102.6
CS(=O)(=O)Nc1ccc2c(c1)nc1n2CCN(Cc2ccccc2)C1 | 106.8
O=C(CSc1ncccn1)Nc1nccs1 | 98.0
COc1ccc(C2(Cc3nc4ccccc4[nH]3)C(=O)c3ccccc3C2=O)cc1 | 99.9
COc1ccccc1/C=C1\N=C(c2ccco2)OC1=O | 99.7
O=C(c1ccccc1)C(Sc1ncn[nH]1)c1ccccc1 (stereo unspecified) | 100.4
Cc1nccc(-c2cccc(NS(=O)(=O)c3ccccc3C(F)(F)F)c2)n1 | 108.3
CC(C)c1ccc(NC(=O)COc2nncc3ccccc23)cc1 | 98.2

The closing two records of the section before open the next one:
molecule | Vaccinia pol inh
Cc1nccc(-c2cccc(NS(=O)(=O)c3ccccc3C(F)(F)F)c2)n1 | 108.3
CC(C)c1ccc(NC(=O)COc2nncc3ccccc23)cc1 | 98.2
Cc1ccc(NC(=O)c2ccc(-n3nc(C(F)(F)F)c4c3-c3ccoc3CC4)cc2)cc1 | 99.5
O=S1(=O)C=C2C(C1)SC(=S)N2C1CCS(=O)(=O)C1 (stereo unspecified) | 99.9
CCc1ccc(NS(=O)(=O)c2ccc3c(c2)SCC(=O)N3)cc1 | 96.2
O=C1CSC(=Nc2ccccc2)N1S(=O)(=O)c1ccccc1 | 99.9
O=C1Nc2cc(C(F)(F)F)ccc2N2CCCC12 (stereo unspecified) | 93.4
O=C(c1ccc(C(=O)N2CCCCC2)cc1)N1CCCCC1 | 97.7
O=C(Oc1ccc(OC(=O)C2CCCCC2)c(Cl)c1)C1CCCCC1 | 99.9
CC(C)(C)c1nnc2n1N=C(c1ccc(Br)cc1)CS2 | 100.5
CCOC(=O)c1[nH]c(C)c(C(=O)N(CC)CC)c1C | 101.4
CN(Cc1ccccc1)C(=O)C1c2ccccc2C(=O)N(C)C1c1cccs1 (stereo unspecified) | 101.9
O=S(=O)(c1cccc(-c2nc3ccccc3s2)c1)N1CCCC1 | 80.5
COc1ccc(NC(=O)C2CC(=O)NC(=Nc3ccccc3)S2)cc1 (stereo unspecified) | 100.7
CN(/N=C(\C#N)C(=O)C1CC1)c1ccc(Cl)cc1 | 90.3
CC(CC(=O)c1ccccc1)CC(=O)c1ccccc1 | 99.4
CC(C)NC(=O)CCc1nc(-c2ccc(Cl)cc2)no1 | 93.0
Cc1cc(OCc2nnc3n2CCCCC3)ccc1Cl | 89.4
O=C(CSc1c(-c2ccccc2)c2cc(Cl)ccc2[nH]c1=O)NC1CCCC1 | 100.3
CCOC(=O)c1c(N)sc2ccccc12 | 92.5
CCc1ccc(-n2c(N)c(C(=O)OC)c3nc4ccccc4nc32)cc1 | 100.1
CC(NC(=O)c1ccc(Br)o1)C1CC2CCC1C2 (stereo unspecified) | 98.9
O=C(CC(c1cccs1)S(=O)(=O)c1ccccc1)c1ccc(F)cc1 (stereo unspecified) | 99.9
N#Cc1ccc(OCC(=O)NCc2ccco2)cc1 | 97.2
O=S1(=O)CC2C(C1)N(c1ccccc1)C(=S)N2c1ccccc1 (stereo unspecified) | 100.4
COc1ccc(C2CCCN2C(=O)c2cccs2)cc1 (stereo unspecified) | 99.8
CCn1c(C(O)c2cc(C(C)(C)C)c(O)c(C(C)(C)C)c2)nc2ccccc21 (stereo unspecified) | 100.5
COc1ccc(NC(=O)C2CCC(=O)N2C(=O)OCc2ccccc2)cc1 (stereo unspecified) | 99.8
CCC1=Nc2cc(C(=O)NCC3CCCO3)ccc2Sc2ccc(Br)cc21 (stereo unspecified) | 103.8
CCCCN1CCCCC1C(=O)Nc1c(C)cccc1C (stereo unspecified) | 99.1
O=C(c1ccco1)N1CCN(C(=O)c2cc(F)c(F)c(F)c2F)CC1 | 110.3
CC(C)C(=O)NC1=NC2C(N=CN2C2CC(O)C(CO)O2)C(=O)N1 (stereo unspecified) | 99.9
Cc1cc(C)c2cc(C(=O)Nc3ccccc3Cl)[nH]c2c1 | 101.1
CCOC(=O)c1oc2ccccc2c1NC(=O)/C=C/c1ccccc1 | 101.6
COC(=O)CNC(c1ccccc1)c1cc(C)ccc1N (stereo unspecified) | 101.5
CCN1CCN(CCCNC(=O)c2n[nH]c(=O)c3ccccc23)CC1 | 98.2
O=C(O)C1Sc2[nH]c(=O)sc2C2c3ccc(O)cc3OC(=O)C12 (stereo unspecified) | 99.8
O=C(COc1ccccc1)Nc1cccc(C(F)(F)F)c1 | 99.2
CC(C)CCCn1c(O)c(/C=C2\C=CC=N2)c(=O)[nH]c1=O | 100.5
CC1(C)CC(=O)c2cc(OCC(=O)NCCN3CCOCC3)ccc2O1 | 94.3
CN(C)S(=O)(=O)n1cc(/C=C(\NC(=O)c2ccccc2)C(=O)NCc2ccco2)c2ccccc21 | 80.2
C=CCn1c(=S)sc2c(SCc3ccc(F)cc3)ncnc21 | 99.5
CC(=O)Nc1ccc(S(=O)(=O)N2CCSC2)cc1 | 110.8
COc1ccc(Br)cc1CNC(=O)c1cc(-c2ccccc2)n(C)c1C | 101.1
Cc1cc(C)c2cccc(NC(=O)COc3ccc4oc5c(c4c3)CCCC5)c2n1 | 100.4
CCCc1c(C)c2c(OCC)cc(OCC)cc2oc1=O | 99.5
CCS(=O)(=O)c1ccc(O)c(N=Cc2ccc[nH]2)c1 | 101.7
CC(C)(C)C(=O)Nc1cccc(-c2cc(-c3c(Cl)cccc3Cl)no2)c1 | 98.3
CCOC(=O)c1c(NC(=O)c2ccccc2)sc2c1CCCC2 | 99.9
Cc1ccc(-c2csc(CC(N)=O)n2)cc1 | 88.8
COc1ccc(C2=NN(CC(=O)NCc3ccc4c(c3)OCO4)C(=O)CC2)cc1 | 102.9
O=C(COC(=O)c1ccccc1)NCC1CCCO1 (stereo unspecified) | 88.3

In the list so far, four have a COOH group:
molecule | Vaccinia pol inh
O=C1NC(=O)N(c2ccccc2)C(=O)/C1=C\c1ccc(C(=O)O)cc1 | 99.4
CCc1ccc(C2CC(c3ccccc3)=NN2C(=O)CCCC(=O)O)cc1 (stereo unspecified) | 100.0
O=C(O)C1=CCNCC1 | 100.3
O=C(O)C1Sc2[nH]c(=O)sc2C2c3ccc(O)cc3OC(=O)C12 (stereo unspecified) | 99.8

The main list resumes, repeating the two entries before the break.
molecule | Vaccinia pol inh
COc1ccc(C2=NN(CC(=O)NCc3ccc4c(c3)OCO4)C(=O)CC2)cc1 | 102.9
O=C(COC(=O)c1ccccc1)NCC1CCCO1 (stereo unspecified) | 88.3
O=C(Nc1ccccc1C(F)(F)F)c1ccccc1Cl | 98.6
CCc1cc2c(=O)c(-c3ccc(F)cc3)c(C)oc2cc1OCC(=O)O | 101.5
O=C(c1ccc(Cl)cc1)N(Cc1ccccc1)c1ccccn1 | 95.4
COc1ccc2c(c1)c(=O)c(S(=O)(=O)c1ccccc1)cn2Cc1ccccc1 | 98.3
CC1CCN(Cc2ccc(NC(=O)Nc3cn(C)c(=O)c4ccccc34)cc2)CC1 | 102.5
Cc1csc(Nc2ccccc2)[n+]1C | 98.2
COc1cccc2sc(NC(=O)c3ccc(S(=O)(=O)N(C)C)cc3)nc12 | 100.9
Cc1nc2c3ccccc3n3c(CCCC(=O)NC4CCCCC4)nnc3n2n1 | 85.6
O=C(O)c1cccc(Cl)n1 | 100.5
